rRNA inh HTS: selective bacterial rRNA inhibition in E. coli | E. coli WT GFP vs humanized-ribosome RFP mutants, fluorescence, 24 h; stronger effect = lower value; DMSO median 0, no signal -100 | GFP signal change (wild-type ribosome), % (test concentration not listed) | 350,000 compounds, 1.6% hits;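 active = significant combined selectivity score with lowered wild-type GFP, culture density cut under 30%, mutant RFP and density less affected; inactive = any of these conditions unmet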; note: one replicate is shown; some compounds called inactive have numbers as strong as hits
FGF22 binding: shifts melting point of recombinant human FGF22; Q9HCT0; recombinant FGF22 thermal shift, SYPRO orange fluorescence; percent of sucrose octasulfate shift, DMSO zero; calls only at 9.99 µM; 340,000 compounds, 1.5% hits; AID 651658;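 active = melting point raised past a set limit in the mean and every replicate; three in four hits are not shown here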
Target sequence (Q9HCT0 whole entry, looked up): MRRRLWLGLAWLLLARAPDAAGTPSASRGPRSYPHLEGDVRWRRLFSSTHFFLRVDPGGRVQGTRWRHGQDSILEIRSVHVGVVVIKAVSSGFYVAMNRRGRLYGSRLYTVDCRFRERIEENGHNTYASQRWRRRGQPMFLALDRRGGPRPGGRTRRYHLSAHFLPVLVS
rRNA inh HTS OD600: further read-out of rRNA inh HTS, marked with its call; OD600 change, %; measured here: OD600 growth;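 optical density of the mix in the first replicate; 0 = DMSO median and -100 = no signal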
rRNA inh HTS RFP: recorded beside rRNA inh HTS, whose call it bears; RFP signal change, %; measured here: RFP humanized mutant strains;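 first replicate; 0 = DMSO median and -100 = no signal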
* = called active by the depositor; i = inactive.

Sample of the layout, 5 compounds:
SMILES	rRNA inh HTS	rRNA inh HTS OD600	rRNA inh HTS RFP	FGF22 binding
COc1ccc(NC(=O)Nc2ccc3c(c2)C(=O)N([C@@H](C)CO)C[C@@H](C)[C@H](CN(C)Cc2ccc(Oc4ccccc4)cc2)O3)cc1	0	-2	1.5	i
O=C(CN1CCOCC1)NCC[C@@H]1CC[C@@H](NS(=O)(=O)c2ccc(Cl)cc2)[C@@H](CO)O1	4	5	0.6	i
C[C@@H]1CCCCO[C@@H](CN(C)C(=O)Nc2ccc3c(c2)OCO3)[C@H](C)CN([C@@H](C)CO)C(=O)c2cc(NS(=O)(=O)c3ccc(Cl)cc3)ccc2O1	-3	-8	-2.8	i
CCN(C[C@@H]1N[C@H](CO)[C@H]1c1ccc(-c2cccc(C#N)c2)cc1)C(=O)COC	0	8	-1.1	i
O=C(C[C@@H]1C[C@@H]2c3cc(NC(=O)NC4CCCC4)ccc3O[C@@H]2[C@H](CO)O1)NCc1cccnc1	0	-6	2.3	i

The list itself (from the top)
SMILES	rRNA inh HTS	rRNA inh HTS OD600	rRNA inh HTS RFP	FGF22 binding
COc1ccc(NC(=O)Nc2ccc3c(c2)C(=O)N([C@@H](C)CO)C[C@@H](C)[C@H](CN(C)Cc2ccc(Oc4ccccc4)cc2)O3)cc1	0	-2	1.5	i
O=C(CN1CCOCC1)NCC[C@@H]1CC[C@@H](NS(=O)(=O)c2ccc(Cl)cc2)[C@@H](CO)O1	4	5	0.6	i
C[C@@H]1CCCCO[C@@H](CN(C)C(=O)Nc2ccc3c(c2)OCO3)[C@H](C)CN([C@@H](C)CO)C(=O)c2cc(NS(=O)(=O)c3ccc(Cl)cc3)ccc2O1	-3	-8	-2.8	i
CCN(C[C@@H]1N[C@H](CO)[C@H]1c1ccc(-c2cccc(C#N)c2)cc1)C(=O)COC	0	8	-1.1	i
O=C(C[C@@H]1C[C@@H]2c3cc(NC(=O)NC4CCCC4)ccc3O[C@@H]2[C@H](CO)O1)NCc1cccnc1	0	-6	2.3	i
COc1ccc(S(=O)(=O)Nc2ccc3c(c2)C(=O)N([C@H](C)CO)C[C@H](C)[C@H](CN(C)C(=O)CCC(F)(F)F)OCCCC[C@@H](C)O3)cc1	1	2	-1.1	i
Cc1ccc(S(=O)(=O)N[C@H]2C=C[C@H](CC(=O)NCCc3ccncc3)O[C@@H]2CO)cc1	2	5	1.7	i
C[C@H]1CN([C@@H](C)CO)C(=O)c2cccc(NS(=O)(=O)c3cn(C)cn3)c2O[C@H]1CN(C)C(=O)Nc1cccc2ccccc12	2	0	-1.2	i
C[C@@H]1CN([C@@H](C)CO)C(=O)c2cc(NC(=O)Nc3cccc4ccccc34)ccc2O[C@H]1CN(C)C(=O)NC1CCCCC1	1	-4	-0.3	i
COC(=O)[C@H]1[C@H](CO)[C@H]2Cn3c(ccc(-c4ccccc4F)c3=O)[C@H]2N1C(=O)c1ccccn1	-1	-4	-2.5	i
COc1ccc2c3c([nH]c2c1)[C@H](CO)N(Cc1nccs1)CC31CN(C(=O)C2CC2)C1	4	13	3.9	i
Cc1ccc(S(=O)(=O)Nc2cccc3c2O[C@@H](CN(C)Cc2ccc(Oc4ccccc4)cc2)[C@H](C)CN([C@H](C)CO)C3=O)cc1	6	14	0.8	i
Cc1noc(C)c1NC(=O)N(C)C[C@@H]1Oc2ccc(NC(=O)CCN3CCOCC3)cc2C(=O)N([C@H](C)CO)C[C@@H]1C	3	9	-2.5	i
CN1C(=O)c2cc(NC(=O)c3cccc(F)c3)ccc2OC[C@H]2O[C@H](CC(=O)Nc3ccccc3)CC[C@@H]21	1	5	5.8	i
COc1ccc(NC(=O)N(C)C[C@H]2OCCCC[C@H](C)Oc3ccc(NS(=O)(=O)c4c(C)noc4C)cc3C(=O)N([C@H](C)CO)C[C@@H]2C)cc1	-1	-5	2.5	i
CCNC(=O)c1cc2c(c(-c3cccc(-c4cccc(F)c4)c3)n1)[C@@H](CCO)N([S@](=O)C(C)(C)C)C2	-12	-11	28	i
COc1ccc(CN(C)C[C@H]2Oc3ccc(NC(=O)NC4CCCCC4)cc3CC(=O)N([C@H](C)CO)C[C@H]2C)cc1	-6	-7	1.6	i
C[C@@H]1CN([C@@H](C)CO)C(=O)c2cc(C#CCc3ccccc3)cnc2O[C@@H]1CN(C)C(=O)C1CCOCC1	5	3	-2.6	i
C=CCN1C(C(=O)OCC)CSCCS1(=O)=O (stereo not drawn)	7	7	3.4	i
COc1ccc(-c2cn(CC[C@H]3CC[C@H](NC(=O)c4cnccn4)[C@H](CO)O3)nn2)cc1	1	0	0.2	i
C[C@@H]1CN([C@@H](C)CO)C(=O)c2cc(-c3ccc(F)cc3)cnc2O[C@H]1CN(C)C(=O)C1CCC1	-1	-9	-0.4	i
C[C@@H]1CN([C@H](C)CO)C(=O)c2cc(NC(=O)CCCN(C)C)ccc2O[C@H]1CN(C)Cc1ccc(C(F)(F)F)cc1	-1	-2	-2.2	i
CO[C@H]1CN(C)C(=O)c2cc(NC(=O)C3CC3)ccc2OC[C@@H](C)N(CC2CC2)C[C@H]1C	3	-1	-1.7	i
C[C@H](CO)N1C[C@H](C)[C@@H](CN(C)S(=O)(=O)c2ccc(F)cc2)Oc2c(NC(=O)c3cnccn3)cccc2C1=O	-3	-11	-1.4	i
C[C@@H]1CCCCO[C@H](CN(C)S(=O)(=O)c2ccc(Cl)cc2)[C@H](C)CN([C@H](C)CO)C(=O)c2cc(NC(=O)CCC(F)(F)F)ccc2O1	0	2	3.1	i
CO[C@H]1CN(C)C(=O)c2cc(NC(C)=O)ccc2OC[C@H](C)N(CCC(F)(F)F)C[C@H]1C	0	-3	-0.1	i
Cc1noc(C)c1NC(=O)Nc1ccc2c(c1)C(=O)N([C@H](C)CO)C[C@@H](C)[C@H](CN(C)Cc1ccc(C(F)(F)F)cc1)O2	2	-3	0.2	i
CCCNC(=O)N1CC2(C1)[C@H](c1ccccc1)[C@@H](CO)N2C(=O)C1CC1	2	5	-1.0	i
C[C@@H]1CCCCO[C@H](CN(C)CC2CCCCC2)[C@@H](C)CN([C@H](C)CO)C(=O)c2cc(NC(=O)Cc3ccccc3)ccc2O1	2	0	-2.2	i
CNC(=O)C[C@H]1CC[C@@H]2[C@H](COc3ccc(NC(=O)Nc4cccc(C)c4)cc3C(=O)N2C)O1	2	1	0.7	i
CS(=O)(=O)N1[C@H](C#N)[C@@H](c2ccccc2-c2ccc(F)cc2)[C@@H]1CO	-1	20	-0.7	i
C[C@@H]1CN([C@@H](C)CO)C(=O)c2cc(C#CCN(C)C)cnc2O[C@@H]1CN(C)C	4	15	0.4	i
C[C@@H]1CN([C@H](C)CO)C(=O)c2cc(NC(=O)NC3CCCCC3)ccc2O[C@H]1CN(C)Cc1ccc(-c2ccccc2)cc1	-8	-11	-0.6	i
C[C@@H]1CN([C@H](C)CO)C(=O)c2cc(NC(=O)CCCN(C)C)ccc2O[C@@H]1CN(C)C	9	2	-1.7	i
CCN1[C@@H]2c3cccc(=O)n3C[C@H]1[C@H](CO)[C@H]2C(=O)NC1Cc2ccccc2C1	2	6	3.0	i
N#C[C@@H]1[C@@H](c2ccc(C3=CCCCC3)cc2)[C@@H](CO)N1C(=O)c1cccc(F)c1	4	19	-5.6	i
CN(C)C(=O)C[C@H]1C[C@H]2c3cc(NS(C)(=O)=O)ccc3O[C@H]2[C@H](CO)O1	2	-1	-2.0	i
C[C@@H]1CCCCO[C@@H](CN(C)S(=O)(=O)c2cn(C)cn2)[C@H](C)CN([C@H](C)CO)C(=O)c2cc(NC(=O)NC3CCCCC3)ccc2O1	1	-1	0.2	i
C[C@H]1CCCCO[C@H](CN(C)Cc2ccc(C(=O)O)cc2)[C@@H](C)CN([C@@H](C)CO)C(=O)c2cc(NC(=O)C3CCCCC3)ccc2O1	4	2	2.2	i
CCC(=O)Nc1ccc2c(c1)OC[C@@H](C)N(CC1CC1)C[C@H](C)[C@H](OC)CN(C)C2=O	1	-1	0.0	i
CCC(=O)Nc1ccc2c(c1)OC[C@H](C)N(C(=O)NC(C)C)C[C@@H](C)[C@H](OC)CN(C)C2=O	2	13	2.8	i
CCCC#Cc1ccc2c(c1)O[C@H](CN(C)Cc1ccc3c(c1)OCO3)[C@@H](C)CN([C@H](C)CO)S2(=O)=O	-5	-9	-1.0	i
Cc1ccc(S(=O)(=O)Nc2ccc3c(c2)CC(=O)N([C@H](C)CO)C[C@@H](C)[C@H](CN(C)C(=O)NC2CCCCC2)O3)cc1	0	6	-2.1	i
CC(C)NC(=O)N(C)C[C@@H]1Oc2ncc(-c3cccc(C#N)c3)cc2C(=O)N([C@H](C)CO)C[C@H]1C	2	9	-3.6	i
Cc1ccccc1-c1cnc2c(c1)C(=O)N([C@@H](C)CO)C[C@@H](C)[C@H](CN(C)C(=O)c1ccc(F)cc1)O2	-7	-5	3.3	i
COc1ccc(NC(=O)Nc2cccc3c2O[C@@H](CN(C)C(=O)Nc2ccc(OC)cc2)[C@@H](C)CN([C@H](C)CO)C3=O)cc1	-4	-10	0.6	i
COc1cccc(S(=O)(=O)Nc2ccc3c(c2)[C@H]2C[C@H](CC(=O)N(C)C)O[C@@H](CO)[C@H]2O3)c1	2	-9	-0.8	i
COc1ccc(CN(C)C[C@@H]2OCCCC[C@@H](C)Oc3ccc(NC(=O)CCCCCC(=O)Nc4ccccc4N)cc3C(=O)N([C@H](C)CO)C[C@@H]2C)cc1	2	9	1.2	i
CC(C)NC(=O)Nc1ccc2c(c1)C(=O)N([C@@H](C)CO)C[C@@H](C)[C@H](CN(C)Cc1ccc(C(F)(F)F)cc1)OCCCC[C@H](C)O2	1	3	2.6	i
CS(=O)(=O)N1CC(=O)N2[C@H](CO)[C@H](c3ccc(Br)cc3)[C@@H]2C1	-1	-14	-0.4	i
C[C@@H]1CN([C@H](C)CO)C(=O)c2cc(C#Cc3ccccc3)cnc2O[C@@H]1CN(C)C(=O)c1ccccc1	0	8	-1.2	i
O=C(Nc1ccccc1F)N[C@H]1CC[C@H](CCNS(=O)(=O)c2ccccc2)O[C@H]1CO	-4	-5	-1.6	i
CC(C)NC(=O)Nc1ccc2c(c1)CC(=O)N([C@H](C)CO)C[C@@H](C)[C@H](CN(C)Cc1ccc(-c3ccccc3)cc1)O2	4	-35	16	i
COc1ccc(-c2ccc([C@H]3[C@@H](C#N)N(C(=O)C4CCC4)[C@@H]3CO)cc2)cc1	2	4	-0.5	i
COc1ccccc1C#Cc1ccc([C@H]2[C@@H](CO)N3CCCCN(C(=O)C4CCC4)C[C@@H]23)cc1	-6	-12	2.9	i
O=C(N[C@H](C(=O)N1CCC[C@H]1C(=O)NC1CCCC1)c1ccccc1)c1ccc(Cl)cc1Cl	3	3	5.9	i
C[C@@H]1CN([C@@H](C)CO)C(=O)c2cc(NC(=O)Nc3ccc(C(F)(F)F)cc3)ccc2O[C@@H]1CN(C)C(=O)Nc1cccc2ccccc12	2	6	-1.0	i
O=C(C[C@@H]1CC[C@@H]2[C@H](COC[C@@H](O)CN2Cc2cccc(F)c2)O1)NCCc1ccncc1	4	6	-1.3	i
C[C@H](CO)N1C[C@H](C)[C@@H](CN(C)S(=O)(=O)c2ccsc2)OCc2ccccc2-c2ccccc2C1=O	3	-2	-1.8	i
O=C(Cc1ccncc1)NCC[C@H]1CC[C@H](NC(=O)Nc2ccc(F)cc2)[C@@H](CO)O1	3	-1	-3.7	i
Remaining list, next part.
SMILES	rRNA inh HTS	rRNA inh HTS OD600	rRNA inh HTS RFP	FGF22 binding
C[C@H](CO)N1C[C@H](C)[C@H](CN(C)S(=O)(=O)c2ccc(F)cc2)OCCCC[C@H](C)Oc2ccc(N(C)C)cc2C1=O	-4	-4	0.2	i
C[C@@H]1CN([C@H](C)CO)C(=O)c2cc(NC(=O)c3ccccc3)ccc2O[C@@H](C)CCCCO[C@H]1CN(C)Cc1ccncc1	-6	-5	-0.2	i
CCCC#Cc1ccc([C@@H]2[C@@H](CO)N3CCCCN(CC4CCOCC4)C[C@@H]23)cc1	4	7	0.4	i
COc1ccc2c3c([nH]c2c1)[C@H](CO)N(C(=O)C1CCCC1)CC31CCN(Cc2nccs2)CC1	-3	-16	-3.7	i
O=C(O)C[C@H]1C[C@H]2c3cc(NC(=O)Nc4ccccc4)ccc3O[C@H]2[C@@H](CO)O1	1	3	-0.8	i
C[C@@H]1CCCCO[C@@H](CN(C)C(=O)Nc2ccc(F)cc2)[C@H](C)CN([C@H](C)CO)C(=O)c2cc(NS(=O)(=O)c3ccc(F)cc3)ccc2O1	0	-3	-2.0	i

Sorted by SMILES length (ascending): part of the list above.
SMILES	rRNA inh HTS	rRNA inh HTS OD600	rRNA inh HTS RFP	FGF22 binding
O=C(O)C[C@H]1C[C@H]2c3cc(NC(=O)Nc4ccccc4)ccc3O[C@H]2[C@@H](CO)O1	1	3	-0.8	i
C[C@@H]1CN([C@H](C)CO)C(=O)c2cc(NC(=O)c3ccccc3)ccc2O[C@@H](C)CCCCO[C@H]1CN(C)Cc1ccncc1	-6	-5	-0.2	i
C[C@@H]1CCCCO[C@@H](CN(C)C(=O)Nc2ccc(F)cc2)[C@H](C)CN([C@H](C)CO)C(=O)c2cc(NS(=O)(=O)c3ccc(F)cc3)ccc2O1	0	-3	-2.0	i

Record cards, from the list above. Order of values: rRNA inh HTS	rRNA inh HTS OD600	rRNA inh HTS RFP	FGF22 binding
`COc1ccc2c3c([nH]c2c1)[C@H](CO)N(C(=O)C1CCCC1)CC31CCN(Cc2nccs2)CC1` across the screens: -3	-16	-3.7	i
`CCCC#Cc1ccc([C@@H]2[C@@H](CO)N3CCCCN(CC4CCOCC4)C[C@@H]23)cc1` across the screens: 4	7	0.4	i

Some of the compounds tested (hit frequency here may not be typical).
